XiGFP reactiv: activators of inactive X chromosome reactivation, primary screen, imaging, XiGFP fibroblasts, GFP high-content imaging, set 2 | activation, % at 7.58 µM | XiGFP mouse fibroblasts, % GFP-positive cells imaging, 3 d; cells co-treated with 5-aza-dC sensitizer; scaled so ellipticine positive control = 100% | 0.055% of 360,000 active;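 active means mean normalized replicate activation at least 10% and every replicate at or above 10%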;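 further: 0% = median of on-plate neutral control wells and 100% = ellipticine 6 µM median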
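Assay system – SV40-immortalized XiGFP fibroblast cells, line 68-5-11 · Buffer or medium – DMEM supplemented with 5-aza-dC as sensitizing agent · Dosing – one concentration, pinned · Benchmarks – positive control ellipticine, 6 µM final · Times – 3 days compound exposure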
ERAP1 inh: human ERAP1 aminopeptidase inhibitors, primary screen, biochemical, single point, plate reader. 0.15% of 340,000 active. recombinant ERAP1, Leu-AMC fluorescence, 60 min. inhibition, % at 10.7 µM. Endoplasmic reticulum aminopeptidase 1 (Homo sapiens), Q9NZ08;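 active means mean replicate inhibition of at least 30%, or all replicates individually reaching that 30% level; inactive means mean below 30% and not every replicate reaching it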;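 further: 0% = neutral control wells and 100% = L-leucinethiol positive control wells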
S100A4 inh HTS: inhibitors of S100A4-myosin IIA peptide binding, primary screen, biochemical, fluorescence polarization, TAMRA-MyoIIA peptide; Protein S100-A4 (Homo sapiens), P26447; AID 652163, 2013; inhibition, % at 10.7 µM; 0.14% of 360,000 active;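 active means mean inhibition of at least 70% across replicates, with every replicate also reaching that level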
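Material: S100A4 monomer protein | Medium: HEPES pH 7.2 with CaCl2, KCl, NaCl, DTT, Triton | Reagent: Labelled myosin peptide probe, 5 nM | Doses: One dose per compound | Times: 5 min incubation before reading | Benchmarks: Neutral control DMSO, positive control TFP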
SIRT5 inh: SIRT5 desuccinylase inhibitors, primary screen, biochemical, fluorescence imaging, single point, set 5 | AID 652115, 2013 | inhibition, % at 15 µM | NAD-dependent protein deacylase sirtuin-5, mitochondrial (Homo sapiens), Q9NXA8 | 1.1% of 330,000 active | Purified SirT5, succinyl-peptide AMC, trypsin-coupled fluorescence; in the data active means inhibition above about 15%
Target sequence (Q9NXA8 whole entry, looked up): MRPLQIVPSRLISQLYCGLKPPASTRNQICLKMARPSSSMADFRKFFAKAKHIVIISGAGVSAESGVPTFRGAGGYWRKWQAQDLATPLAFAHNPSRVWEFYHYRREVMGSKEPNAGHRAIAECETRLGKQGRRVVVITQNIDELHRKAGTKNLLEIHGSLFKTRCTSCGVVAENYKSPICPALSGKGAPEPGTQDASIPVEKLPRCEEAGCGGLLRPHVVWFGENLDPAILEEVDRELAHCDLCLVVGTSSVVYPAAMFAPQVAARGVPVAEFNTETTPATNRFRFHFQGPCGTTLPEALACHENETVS
The depositor's hits bear a star; . = not tested or not shown.

1) COc1cc(/C=C/C(=O)N2CCCC=CC2=O)cc(OC)c1OC
2) O=C(NC1CCC(Oc2ccc(C(=O)O)cc2)CC1)NC12CC3CC(CC(C3)C1)C2 (centres undefined)
3) CC(N)C(=O)NC(CO)C(O)C(N)C=O (centres undefined)
4) COc1ccc(S(=O)(=O)n2c(C)nc3ccccc32)cc1C
5) NCCN1C(=O)c2ccccc2C1(O)c1ccc(Cl)cc1 (centres undefined)
6) O=C(NCc1cc(C(F)(F)F)ccc1Cl)c1cccc2c1C(=O)c1ccc(N3CCC(N4CCCCC4)CC3)cc1S2(=O)=O

Screen / compound no.	1	2	3	4	5	6
XiGFP reactiv	.	0.7	-0.1	0.1	0.2	1.6
ERAP1 inh	-0.4	-3.4	0.6	0.1	-0.5	1.7
S100A4 inh HTS	0.2	-1.5	3.0	-0.1	-5.0	2.1
SIRT5 inh	0.3	2.8	-1.8	1.5	.	-0.9

7) C#Cc1cccc(N2C(=O)C3C4C=CC(C3C2=O)C2C(=O)N(c3cccc(C#C)c3)C(=O)C42)c1 (centres undefined)
8) C=C(CN(C)C)C(=O)c1ccc2c(c1)OCO2
9) O=C1NN(c2ccccc2)C(=O)/C1=C/c1ccc(Sc2ccc(Cl)cc2)o1
10) O=C1C=CCCN1C(=O)/C=C/c1ccc(F)cc1
11) O=C(Cn1c(C(=O)c2ccccc2)nc2ccccc21)c1ccc(Cl)cc1
12) c1ccc(CN2CCC3CC2c2cc(N4CCOCC4)ccc23)cc1 (centres undefined)

Screen / compound no.	7	8	9	10	11	12
XiGFP reactiv	0.0	-0.1	-0.2	.	-0.1	.
ERAP1 inh	-5.0	1.8	0.1	7.1	4.6	4.1
S100A4 inh HTS	-19.1	20.9	-5.0	-21.7	10.3	-1.2
SIRT5 inh	0.3	-1.5	2.9	0.9	-3.4	0.2

The list is partial, so the mix of outcomes need not match the whole.
